# D2 potentiator: positive allosteric modulators of human D2 dopamine receptor; actives 0.23% (n = 360,000); DiscoveRx D2 beta-arrestin cells, luminescence, 90 min; 100% = 57 uM dopamine signal; P14416; potentiation, % (concentration not given with the values); active = potentiation of 50% or more; inconclusive = 30% to 50%; inactive = 30% or less;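 also: compound concentration not given in the record; tested on top of an EC20 dose of dopamine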
# Target sequence (P14416 whole entry, looked up): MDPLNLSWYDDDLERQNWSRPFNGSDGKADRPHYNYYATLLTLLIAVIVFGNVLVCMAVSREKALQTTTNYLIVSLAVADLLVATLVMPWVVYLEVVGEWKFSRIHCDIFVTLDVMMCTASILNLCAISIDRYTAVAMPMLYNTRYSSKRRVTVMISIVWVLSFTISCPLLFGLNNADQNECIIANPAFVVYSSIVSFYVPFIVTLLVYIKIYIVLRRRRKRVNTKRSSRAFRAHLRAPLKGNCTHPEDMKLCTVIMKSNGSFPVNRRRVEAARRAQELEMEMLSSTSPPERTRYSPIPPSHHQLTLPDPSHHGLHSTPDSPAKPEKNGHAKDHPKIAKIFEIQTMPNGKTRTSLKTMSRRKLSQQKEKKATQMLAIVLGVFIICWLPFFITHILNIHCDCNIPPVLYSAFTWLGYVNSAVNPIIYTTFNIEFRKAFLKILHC
#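 PathHunter beta-arrestin assay in DiscoveRx D2 cells. Compounds were added with an EC20 of dopamine (50 nM final) for 90 min at 37 deg C. Luminescence was read 1 h after detection reagent, with 57 uM dopamine as the EC100 control.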
# TRPV1 PAM: enhances activation of the human vanilloid receptor TRPV1; potentiation, % at 8.33 µM; Q8NER1; TRPV1-expressing cells, Fluo-8 calcium influx, capsaicin EC20 potentiation; host cell line not named in the record; control for the full effect not named in the record; actives 0.02% (n = 320,000); active means potentiation above 80%; inconclusive means 30% to 80%; inactive means below 30%; also: 0% is about no effect
#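 Fluo-8 calcium influx in TRPV1-expressing cells, kinetic read (ex 480/em 520 nm). Compound added and read 3 min for agonist activity, followed by capsaicin at EC20 final and 2 min further read for enhancement.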
# ClpP mod: qHTS Assay for Activators of ClpP; purified B. subtilis ClpP, FRET peptide cleavage, 20 min; AID 651965, 2013; ATP-dependent Clp protease proteolytic subunit (Bacillus subtilis (strain 168)), P80244; actives 1.9% (n = 340,000); Potency, µM (doses to about 57.5 µM), for the others: at the top dose activity change, negative = active; active = well fitted falling curve with a large enough effect; inconclusive = small, poorly fitted or top-dose-only effect; inactive = no such curve, though single readings can be large or run the other way; also: potency is read from the fitted curve at half-maximal effect; the source files actives as falling curves though it sought activators and does not explain the sign; nearly all actives have a fitted effect of over 65% in size; many hits overshoot -100%
# Target sequence (P80244 whole entry, looked up): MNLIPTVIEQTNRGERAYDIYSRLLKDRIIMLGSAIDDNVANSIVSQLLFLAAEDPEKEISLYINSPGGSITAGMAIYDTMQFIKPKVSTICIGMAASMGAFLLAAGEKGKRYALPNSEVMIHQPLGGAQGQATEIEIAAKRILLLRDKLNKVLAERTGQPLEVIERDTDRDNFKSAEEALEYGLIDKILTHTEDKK
#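 Purified B. subtilis ClpP, 10 microg/mL final in Tris/HCl pH8 with KCl, BSA, glycerol and Tween-20, cleaved an Abz/nitrotyrosine-quenched decapeptide. Fluorescence (ex 320, em 430) was read at 0 and 20 min at room temperature. Delta was normalized to 5.8 microM ADEP and DMSO/no-enzyme controls.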
# gsp ag: agonists of gsp mutant (McCune-Albright syndrome) | actives 0.13% (n = 340,000) | gsp mutant cells, cAMP HTRF, 30 min; control for the full effect not named in the record | Potency, µM (series often up to 76.9 µM), for the others: at the highest dose activation (cAMP increase), most hits filed as activators | AID 624287; active = well fitted activation curve with a large enough effect; inconclusive = small, poorly fitted or top-dose-only effect, or another doubt; inactive = no such curve, though single readings can be large or run the other way; cell line not stated here;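 also: phosphodiesterase inhibitor Ro 20-1724 added with compounds to block cAMP breakdown; potency is read from the fitted curve at half-maximal effect; nearly all actives have a fitted effect of over 60% in size; about a fifth of the inactives were tested at one dose only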
#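 Cells in DMEM/10% FBS with G418 were pretreated with compounds in DMSO plus […] (300 uM stock) for 30 min at 37C. cAMP was measured by HTRF (cAMP-d2 plus anti-cAMP antibody-K) after 30 min at room temperature.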
# Menin-MLL FL inh: menin-MLL binding inhibition, fluorescein peptide. Fluorescence polarization, fluorescein-MLL peptide displacement from menin. FP activity change, % at 61.4 µM. 290,000 tested, under 10 active. AID 1766; inconclusive = falling polarisation curve, or a change in total fluorescence; inactive = total fluorescence flat and polarisation flat or rising; no compound was filed as active; the % refers to the polarisation; negative = inhibition;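 also: % of control where 0% means no effect; inhibitors lower the polarisation; unlabelled MLL peptide was the positive control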
# gsp antag: antagonizes gsp, the McCune-Albright syndrome mutation | gsp-mutant cells, cAMP HTRF, 30 min; control for the full effect not named in the record | Potency, µM (series often up to 76.9 µM), without a hit: at the highest dose activity change, negative = inhibition, usual class: inhibitors | actives 0.4% (n = 340,000) | AID 624288; active = falling curve of any shape with a large fitted effect; inconclusive = falling curve, mostly with a smaller effect; inactive = flat or rising curve; cell line not stated here;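 also: intracellular cAMP measured with PDE inhibitor Ro 20-1724 present during compound exposure; potency is read from the fitted curve at half-maximal effect; % is scaled to controls: 0 for no effect and ±100 for the full control effect; nearly all actives have a fitted effect of over 65% in size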
#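 Measurement of cellular cAMP by homogeneous time-resolved fluorescence following a 30 min compound exposure at 37C. The PDE inhibitor […] was present throughout; the assay buffer was DPBS with 0.05% BSA and 0.005% Tween 20.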
# Sfp inh: blocks B. subtilis Sfp PPTase activity; Potency, µM, for the others: max response, negative = inhibition, hits mostly inhibitors; Biochemical Sfp PPTase activity, qHTS; actives 3.5% (n = 310,000); AID 1490; active = well fitted inhibition curve with a large enough effect; inconclusive = small, poorly fitted or top-dose-only effect, or another doubt; inactive = no such curve, though single readings can be large or run the other way;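 also: the enzyme is Sfp with the accession as filed and its product quenches rhodamine fluorescence; potency is read from the fitted curve at half-maximal effect; 0% = enzyme reaction without inhibitor and -100% = no enzyme wells; top concentration of the series not given in the record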
#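 Step 1, compound plus 15 nM Sfp-PPTase, 15 min, room temperature. Step 2, add rhodamine-CoA (5 uM) and BHQ-2-YbbR (12.5 uM). Step 3, read 525/598 nm fluorescence at 0 and 30 min.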
# Active calls of the source: *; ? = inconclusive; nt = not tested or not shown; & = joins results of further samples; [ ] = another dose, or the depositor's remark.
SMILES,D2 potentiator,TRPV1 PAM,ClpP mod,gsp ag,Menin-MLL FL inh,gsp antag,Sfp inh
Cc1ccc(S(=O)(=O)N2CCC(C(=O)NNC(=O)c3ccccc3O)CC2)cc1,2.0,5.0,?,-2.8%,nt,3.2%,nt
COC(=O)COc1ccc(S(=O)(=O)NCc2ccncc2)cc1,0.3,0.6,-1.7%,-18.7%,-3.3,11.2µM*,11.5%
COc1ccc(C(=O)Cn2c(N3CCOCC3)nc3c2c(=O)n(C)c(=O)n3C)cc1,nt,?,nt,nt,2.9,nt,21.1%
COc1ccc(-n2nc(C(=O)O)c3ccccc3c2=O)c(OC)c1,9.1,4.3,-0.2%,-27.4%,0.7,-6.3%,11.5%
CNC(=O)CSc1cn(CC(=O)N(C(C)C)C(C)C)c2ccccc12,-4.9,12.3,-15.3%,-5.2%[15.4 µM],4.4,-1.6%,-10.0%
CC(C)n1cc(NC(=O)C2CC(c3cccc(Br)c3)=NO2)cn1 (stereo not given),-19.0,-1.4,-2.6%,0.5%,3.0,?,18.0%
C=CCn1cc(C(=O)NCCCN(CC)CC)c(=O)c2cc(S(=O)(=O)N3CCC(C)CC3)ccc21,-2.7,12.6,-16.3%,-13.4%,2.4,3.1%,11.4%
Fc1ccc(-c2nnc(CSc3nnc4ccccn34)o2)cc1,-0.9,-1.5,-1.1%,3.2%,9.2,9.7%,3.9%
O=C(Nc1nnc(-c2ccc(Br)cc2)o1)C1=COCCO1,-15.6,-19.8,1.3%,8.2%,nt,-0.2%,nt
COc1ccc(Nc2c3c(nc4ccc(C)cc24)CCC3)cc1,-12.7,3.0,0.2%,29.7%,-4.1,-2.3%,-6.1%
COc1cc(NC(=O)CCN2C(=O)NC3(CCCC3)C2=O)c(OC)cc1Cl,-2.8,8.1,2.5%,-3.0%,nt,-7.0%,nt
c1ccc(-c2nn3c(-c4ccccc4)nnc3s2)cc1,-14.0,3.0,4.8%&-1.1%,-14.5%,-0.7,3.6%,2.0%
COc1ccc(C2CC(C)(c3ccc(OC)cc3)Nc3ccccc3N2)cc1 (stereo not given),-5.0,9.6,-0.2%,14.1%[15.4 µM],?,-19.1%,21.7%
CN(C)/C=C(/C(=O)c1ccccc1Cl)S(C)(=O)=O,-4.6,1.4,nt,-28.1%[15.4 µM],2.4,8.3%,11.3%
CC(C)c1ccc(SCc2noc(C(=O)NCC3CCCO3)c2C(=O)O)cc1 (stereo not given),-44.5,3.5,-1.9%,nt,1.9,-0.6%,100µM*
Cc1ccc(C(=O)OCC(=O)NCc2ccco2)cc1,-0.3,-18.8,1.1%,-34.8%[inhibitor],-1.8,-23.9%,-1.6%
O=C(CCCSc1nc2ccccc2[nH]1)Nc1ccccc1,-7.5,-17.2,-2.1%,3.0%[15.4 µM],-0.8,3.6%,11.4%
Cc1ccc(-c2csc(NC(=O)Cc3cccs3)n2)cc1C,-8.5,0.0,0.2%,8.1%,2.9,5.4%,11.9%
NC(=O)c1ccccc1OCC(=O)Nc1ccc2c(c1)CCC2,-6.3,-16.3,-6.0%,7.0%,nt,-0.1%,nt
O=C(Nc1cnc2ccccc2c1)c1cccc(-n2cnnn2)c1,-6.6,3.8,-2.9%,-54.2%[inhibitor],0.7,5.1%,1.3%
COc1ccccc1C(=O)CSc1nccn1C,-2.3,-1.1,nt,-15.8%[15.4 µM],-1.6,10.3%,56.2µM*
O=C(NC(=S)Nc1ccccc1C(=O)O)c1cncc(Br)c1,-0.3,1.8,0.3%,-1.0%[15.4 µM],0.9,-11.2%,10µM*
CCOC(=O)c1cccc(NC(=O)CSc2nc3ccccc3c(=O)n2CC)c1,2.5,-0.1,1.3%,-0.7%,4.1,7.7%,8.3%
Cc1ccc(-c2csc3ncn(Cc4ccc(C(=O)O)cc4)c(=O)c23)cc1C,-10.6,?,-3.1%,12.6%,0.2,-26.1%,-2.3%
COCCn1c(C)cc(C(=O)COC(=O)c2cccc(O)c2)c1C,-6.9,-2.1,-0.3%,-9.9%,0.8,-1.4%,9.9%
# Following part:
SMILES,D2 potentiator,TRPV1 PAM,ClpP mod,gsp ag,Menin-MLL FL inh,gsp antag,Sfp inh
COc1ccc(C(=O)NCC(=O)NCC(=O)OCc2ccc(Br)cc2)cc1,-7.2,-13.0,2.2%,-4.6%,-0.2,1.3%,9.5%
CC(=O)N1c2ccc(S(=O)(=O)NCCC(=O)NCCc3cccc(C)c3)cc2CC1C (stereo not given),-12.5,19.0,0.3%,-2.1%,nt,-10.7%,17.7%
CCOC(=O)c1c(N)sc(C(O)(C(F)(F)F)C(F)(F)F)c1-c1ccc(F)cc1,1.7,-1.1,1.9%,-60.9%[inhibitor],-0.7,13.2%,13.6%
Cc1cccc(-n2cc(C#N)c(=O)[nH]c2=O)n1,-3.0,4.3,nt,-10.9%[15.4 µM],-2.5,1.7%,14.1%
Cc1ccc2c(c1)/C(=C/c1ccc(F)cc1)C(=O)N2,-10.7,0.2,1.0%,16.2%,-3.9,-11.1%,-9.9%
CCC(=O)c1ccc(OCc2ccccc2)c(OC)c1,23.1,-8.4,-4.1%,-14.6%[15.4 µM],1.6,-2.9%,20.8%
Cc1ccc(NC(=S)NNC(=O)c2nnn(-c3ccccc3)c2C)cc1,-18.5,5.1,-1.9%,-46.7%[inhibitor],1.1,?,11.9%
C/C(=N/NS(=O)(=O)c1ccc(C)cc1C)c1ccc2c(c1)OCO2,-25.8,2.4,-6.0%,27.6%,2.3,1.0%,?
CCCCN(C(=O)C1=COCCO1)c1c(N)n(CCC)c(=O)[nH]c1=O,5.8,-2.1,0.5%,10.2%,nt,17.7%,nt
O=C(NC1CCCCCC1)C1c2ccccc2C(=O)N1CCCN1CCOCC1 (stereo not given),3.5,1.9,-0.3%,12.0%,1.6,1.3%,4.1%
Cc1ccc(S(=O)(=O)N2CCOCC2)cc1NC(=O)COC(=O)c1cc(=O)[nH]c2ccccc12,-9.3,-0.9,-7.6%,13.3%,0.4,10.8%,14.7%
C[C@@H]1CN([C@H](C)CO)C(=O)CCCn2nncc2CO[C@H]1CN(C)Cc1ccccc1C(F)(F)F,3.3,nt,2.6%,-24.2%,nt,nt,nt
Cc1cc(C)c(C)c(S(=O)(=O)N2CCN(C(=O)c3ccncc3)CC2)c1C,-0.5,-3.7,0.2%,-1.2%,nt,1.4%,nt
N#CC(C(=O)Nc1ccccc1)=C1CCCCC1,-7.8,-10.3,0.6%,-16.6%,-7.1,0.7%,-8.4%
COC(=O)CCN(Cc1ccccc1)S(=O)(=O)c1ccccc1Br,-0.6,nt,1.9%,nt,nt,-19.6%,nt
Cc1ccc(Cl)cc1NC(=O)CN1CCN(C(=O)C2CCCO2)CC1 (stereo not given),5.1,-1.7,-2.8%,-8.1%,nt,-6.0%,0.2%
O=C(NCCCn1ccnc1)C1CC(c2cccc(Br)c2)=NO1 (stereo not given),-4.8,-0.7,-0.3%,-20.2%,0.7,-1.4%,8.5%
CCOC(=O)[C@H]1[C@H]2COc3ccc(OC)cc3[C@@H]2N2C(=O)c3cc(OC)ccc3NC(=O)[C@@]12C,-7.6,5.2,-4.3%,11.2%,nt,-8.3%,nt
COc1cccc(NC(=O)c2nn(C)c3c2CS(=O)(=O)c2ccccc2-3)c1,-3.4,7.5,65.3%,-36.1%[inhibitor],4.4,-4.4%,13.8%
C#CCCCCCCCCC(=O)NCCCC,-5.7,-25.0,nt,-1.2%[15.4 µM],1.6,5.3%,-13.6%
Cc1ccc(NC(=O)c2nc[nH]c2C(=O)NCCCNC(=O)c2[nH]cnc2C(=O)Nc2ccc(C)cc2)cc1,-4.7,nt,1.1%,nt,nt,4.5%,nt
COc1ccc(N(C(=O)c2cccnc2)S(=O)(=O)c2ccc3c(c2)n(C)c(=O)n3C)cc1,12.4,3.9,0.5%,21.7%,-1.2,-11.3%,20.5%
CN(C)C(CNC(=O)c1cc(S(=O)(=O)N2CCOCC2)ccc1Cl)c1cccs1 (stereo not given),-1.8,nt,-2.4%,7.1%,nt,-0.2%,nt
O=C(/C=C(O)/C=C/c1ccc(O)cc1)/C=C/c1ccc(O)cc1,-10.3,-3.6,1.2%,19.1%,nt,9.4%,nt
COc1ccc(-c2cc(C(F)(F)F)n3nc(C(=O)N4CCN5CCCC5C4)cc3n2)cc1OC (stereo not given),-7.2,6.9,nt,30.1%,2.6,3.4%,20.0%
# More entries follow:
SMILES,D2 potentiator,TRPV1 PAM,ClpP mod,gsp ag,Menin-MLL FL inh,gsp antag,Sfp inh
CC(=O)c1ccc(N2CCN(CC(=O)N(CC(C)C)c3c(N)n(CC(C)C)c(=O)[nH]c3=O)CC2)cc1,1.4,-1.5,1.4%,-2.0%[15.4 µM],10.8,-8.6%,17.2%
Cc1[nH]c2ccccc2c1/C=N/NC(=S)NC(C)C,5.7,-24.6,nt,18.0%[15.4 µM],10.7,1.9%,?
Cc1ccccc1NC(=O)NC1(C(=O)N2CCOCC2)CCCCC1,-4.9,5.7,0.4%,20.6%,1.1,-11.6%,17.0%
Cc1cc(C)c2[nH]c(=O)c(CN(CC3CCCO3)S(=O)(=O)c3ccc4c(c3)OCCO4)cc2c1 (stereo not given),-10.3,-6.0,?,-29.8%,-0.5,-23.8%,-0.1%
CN(C)c1ccc(N=Nc2ccccc2C(=O)OCC(=O)N(C)c2ccccc2)cc1,4.2,9.2,0.6%,10.1%,7.9,?,?
O=C(c1ccc2ncsc2c1)N1CCN(c2ccccc2Cl)CC1,-5.2,-11.7,-7.1%,21.5%,-1.5,-11.1%,15.2%
CCCC1=C(C(=O)OCC)C(c2ccc(F)cc2)n2ncnc2N1 (stereo not given),17.0,-1.3,1.1%,?,2.0,-23.1%,16.8%
Cc1ccc(C)c(N2CCN(S(=O)(=O)c3cccc4cccnc34)CC2)c1,-8.8,4.7,nt,-0.8%[15.4 µM],3.0,-5.9%,6.1%
O=C(Nc1ccc2c(c1)C(N1CCOCC1)c1ccccc1-2)C(F)(F)F (stereo not given),-2.3,nt,-16.8%,4.8%[15.4 µM],nt,-10.2%,nt

# Bioassay records from PubChem.
